gsp ag: qHTS for Agonist of gsp, the Etiologic Mutation Responsible for Fibrous Dysplasia/McCune-Albright Syndrome: qHTS. gsp mutant cells, cAMP HTRF, 30 min; control for the full effect not named in the record. Potency, µM (highest dose often 76.9 µM), inactives show at the top dose activation (cAMP increase), usual class: activators. actives 0.13% (n = 340,000); active = well fitted activation curve with a large enough effect; inconclusive = small, poorly fitted or top-dose-only effect, or another doubt; inactive = no such curve, though single readings can be large or run the other way; cell line not stated here;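 note: phosphodiesterase inhibitor Ro 20-1724 added with compounds to block cAMP breakdown; potency is the fitted concentration of half-maximal effect; nearly all actives have a fitted effect of over 60% in size; about a fifth of the inactives were tested at one dose only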
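Cells in DMEM/10% FBS with G418 were pretreated with compounds in DMSO plus […] (300 uM stock) for 30 min at 37C. cAMP was measured by HTRF (cAMP-d2 plus anti-cAMP antibody-K) after 30 min at room temperature.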
CtBP-E1A blk: qHTS Assay for Inhibitors of the CtBP/E1A Interaction. AlphaScreen GST-E1A/His-CtBP binding, 1536-well; hits give low values; control for the full effect not named in the record. activity change, % (no concentration beside the values). actives 0.49% (n = 340,000). AID 651724, 2012; in the data active means activity change below about -65%; inconclusive means about -30% to -65%; inactive means above about -30%; note: % is set by controls: 0 for no effect and ±100 for the full control effect; compound concentration not given in the record
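Protein mix (5X: 125 nM each GST-E1A, His-CtBP) was incubated with pinned compound 2 h at 37 deg C in dark, in 50 mM Tris pH 8.0 buffer with 300 mM NaCl. Glutathione donor and nickel acceptor beads followed; AlphaScreen signal read after 1 h.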
ClpP mod: qHTS Assay for Activators of ClpP. actives 1.9% (n = 340,000). AID 651965, 2013. Potency, µM (titrated, usually from 57.5 µM), without a hit: at the highest dose activity change, negative = active. purified B. subtilis ClpP, FRET peptide cleavage, 20 min. ATP-dependent Clp protease proteolytic subunit (Bacillus subtilis (strain 168)), P80244; active = well fitted falling curve with a large enough effect; inconclusive = small, poorly fitted or top-dose-only effect; inactive = no such curve, though single readings can be large or run the other way; note: potency is the fitted concentration of half-maximal effect; the source files actives as falling curves though it sought activators and does not explain the sign; nearly all actives have a fitted effect of over 65% in size; many hits overshoot -100%
Target sequence (P80244 whole entry, looked up): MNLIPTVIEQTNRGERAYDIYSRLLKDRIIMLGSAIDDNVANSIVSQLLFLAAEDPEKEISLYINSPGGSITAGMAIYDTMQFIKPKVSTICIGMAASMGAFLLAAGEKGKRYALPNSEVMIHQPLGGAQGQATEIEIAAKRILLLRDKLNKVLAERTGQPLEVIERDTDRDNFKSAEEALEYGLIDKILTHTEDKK
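Buffer: 100 mM Tris/HCl pH8, 100 mM KCl, 0.05% low protease BSA, 2.5% glycerol, 0.01% Tween-20. ClpP 10 microg/mL final; 20 min RT; delta FRET normalized to ADEP and DMSO controls.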
Sfp PPTase inh: qHTS Assay for Inhibitors of Bacillus subtilis Sfp phosphopantetheinyl transferase (PPTase); Potency, µM, for the others: max response, negative = inhibition, usual class: inhibitors; Biochemical Sfp PPTase activity, qHTS; actives 3.5% (n = 310,000); active = well fitted inhibition curve with a large enough effect; inconclusive = small, poorly fitted or top-dose-only effect, or another doubt; inactive = no such curve, though single readings can be large or run the other way;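 note: the enzyme is Sfp with the accession as filed and its product quenches rhodamine fluorescence; potency is the fitted concentration of half-maximal effect; 0% = enzyme reaction without inhibitor and -100% = no enzyme wells; top concentration of the series not given in the record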
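Buffer: 50 mM Hepes-Na pH 7.6, 10 mM MgCl2, 0.01% Nonidet P-40, 0.01% BSA. Enzyme 15 nM, pre-exposed to compound 15 min; substrates then added and fluorescence change tracked over 30 min.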
TRPV1 potentiator: HTS Assay for Compounds that Act as Potentiators of the Vanilloid Receptor 1; TRPV1-expressing cells, Fluo-8 calcium influx, capsaicin EC20 potentiation; host cell line not named in the record; control for the full effect not named in the record; actives 0.02% (n = 320,000); potentiation, % at 8.33 µM; AID 540277, 2011; active means potentiation above 80%; inconclusive means 30% to 80%; inactive means below 30%; note: 0% is about no effect
Target sequence (Q8NER1 whole entry, looked up): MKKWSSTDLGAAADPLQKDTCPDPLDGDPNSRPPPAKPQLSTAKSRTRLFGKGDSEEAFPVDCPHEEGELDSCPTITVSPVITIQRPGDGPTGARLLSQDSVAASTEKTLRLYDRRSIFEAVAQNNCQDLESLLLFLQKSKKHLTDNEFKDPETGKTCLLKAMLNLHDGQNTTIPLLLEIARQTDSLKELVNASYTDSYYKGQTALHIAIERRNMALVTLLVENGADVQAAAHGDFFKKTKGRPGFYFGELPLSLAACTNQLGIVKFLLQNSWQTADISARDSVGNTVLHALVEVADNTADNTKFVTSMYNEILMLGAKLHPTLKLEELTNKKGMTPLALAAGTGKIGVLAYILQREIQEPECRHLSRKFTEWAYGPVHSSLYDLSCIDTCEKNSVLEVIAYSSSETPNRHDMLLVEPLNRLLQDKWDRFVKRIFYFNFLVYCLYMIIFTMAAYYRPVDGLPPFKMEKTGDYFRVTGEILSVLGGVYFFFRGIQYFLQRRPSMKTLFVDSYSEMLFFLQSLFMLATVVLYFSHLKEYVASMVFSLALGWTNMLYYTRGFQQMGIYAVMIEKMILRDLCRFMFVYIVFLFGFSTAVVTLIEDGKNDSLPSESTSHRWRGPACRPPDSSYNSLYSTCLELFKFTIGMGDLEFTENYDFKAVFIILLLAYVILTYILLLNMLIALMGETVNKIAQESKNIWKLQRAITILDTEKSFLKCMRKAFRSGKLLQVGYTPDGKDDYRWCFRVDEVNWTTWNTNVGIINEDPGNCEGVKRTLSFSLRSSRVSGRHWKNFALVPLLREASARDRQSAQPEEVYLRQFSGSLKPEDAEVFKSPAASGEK
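TRPV1-expressing cells were cultured overnight at 35.5C and loaded with Fluo-8 calcium dye for 40 to 90 min at room temperature. After a 10 s baseline, compound was added and calcium influx was read kinetically for 3 min (ex 480/em 520 nm).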
Menin MLL FP FL: qHTS Assay for Inhibitors Targeting the Menin-MLL Interaction in MLL Related Leukemias: Competition With Fluorescein Labeled MLL-derived Peptide; 290,000 tested, under 10 active; FP activity change, % at 61.4 µM; Fluorescence polarization, fluorescein-MLL peptide displacement from menin; AID 1766, 2009; inconclusive = falling polarisation curve, or a change in total fluorescence; inactive = total fluorescence flat and polarisation flat or rising; no compound was filed as active; the % refers to the polarisation; negative = inhibition;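 note: % of control where 0% means no effect; inhibitors lower the polarisation; unlabelled MLL peptide was the positive control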
gsp antagonist: qHTS for Antagonists of gsp, the Etiologic Mutation Responsible for Fibrous Dysplasia/McCune-Albright Syndrome: qHTS; gsp-mutant cells, cAMP HTRF, 30 min; control for the full effect not named in the record; Potency, µM (titrated, usually from 76.9 µM), for the others: top-dose activity change, negative = inhibition, usual class: inhibitors; actives 0.4% (n = 340,000); active = falling curve of any shape with a large fitted effect; inconclusive = falling curve, mostly with a smaller effect; inactive = flat or rising curve; cell line not stated here;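 note: intracellular cAMP measured with PDE inhibitor Ro 20-1724 present during compound exposure; potency is the fitted concentration of half-maximal effect; % is set by controls: 0 for no effect and ±100 for the full control effect; nearly all actives have a fitted effect of over 65% in size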
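Measurement of cellular cAMP by homogeneous time-resolved fluorescence following a 30 min compound exposure at 37C. The PDE inhibitor […] was present throughout; the assay buffer was DPBS with 0.05% BSA and 0.005% Tween 20.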
* hit, by the source's call; ? = inconclusive; · = no result given; [ ] = dose if it differs, or a comment.

SMILES	gsp ag	CtBP-E1A blk	ClpP mod	Sfp PPTase inh	TRPV1 potentiator	Menin MLL FP FL	gsp antagonist
Fc1cccc(/C=N/Nc2ccc3ccccc3n2)c1	-32%[inhibitor]	6	·	0%	2	1.7	2%
CC1=C(C#N)C(=O)N(C2CCS(=O)(=O)C2)C(=O)/C1=C\c1ccc(C)o1 (stereo not given)	·	·	·	13µM*	4	?	·
C/C(CC(=O)Nc1ccc(Cl)cc1C(F)(F)F)=N\NC(N)=S	-3%[15.4 µM]	11	·	45µM*	9	2.8	14%
O=C(NCc1cccnc1)C1CCN(c2ccc(S(=O)(=O)N3CCOCC3)cc2Cl)CC1	-31%[inhibitor]	1	·	15%	-22	-0.2	-2%
CN(C)S(=O)(=O)c1cc(C(=O)Nc2ccn(C)n2)c(Cl)cc1Cl	-22%	-4	-2.2%	·	3	·	1%
COc1ccc(N2C(=O)C3CCCN3C2c2cccc(C)c2)cc1Cl (stereo not given)	26%	1	0.3%	8%	6	5.8	?
O=C(COc1ccccc1Cl)Nc1ccccc1C(=O)Nc1cccc(C(=O)O)c1	-26%	2	1.3%	12%	10	·	8%
O=C(CSc1nnnn1-c1ccccc1)N1CCc2ccccc2C1	-4%	-1	-0.2%	4%	-15	0.1	3%
C=CCn1c(SCc2ccccc2C#N)nnc1-c1cc(Br)ccc1O	-2%	?	-1.0%	-2%	-28	1.7	35µM*
O=C(Nc1ccccc1Sc1ccccc1)c1ccccc1	-2%	18	-2.1%	-4%	9	-1.9	-17%
COc1ccc(S(=O)(=O)N(CC(=O)NCc2cccnc2)Cc2ccccc2)cc1	1%[15.4 µM]	-6	·	-2%	-4	-7.7	11µM*
COc1ccc(OC)c(-n2nnnc2SCC(=O)Nc2ccccc2N2CCOCC2)c1	-49%[inhibitor]	·	-0.3%	10%	-9	1.3	-20%
COc1cc(CO)cc(Br)c1OCC(=O)Nc1cccc2ccccc12	-15%[15.4 µM]	-18	·	2%	2	-5.2	-5%
Nc1cccc(CP(=O)(c2ccccc2)c2ccccc2)c1	?	-1	0.6%	·	-17	·	14%
CCCn1c(N2CCN(CC(=O)c3c(C)n(C)c4ccccc34)CC2)nc2c1c(=O)[nH]c(=O)n2C	-48%[inhibitor]	-6	-2.3%	-3%	12	-0.1	-6%
CC(C)CC(O)(CC(C)C)C(=O)NNc1ccccc1	-7%	6	0.0%	14%	-1	-0.7	15%
CC(=NCc1ccncc1)C1=C(O)c2ccccc2C1=O	·	·	·	?	5	0.1	·
CS(=O)(=O)Oc1ccc(/C=N/NC(=O)c2ccncc2)cc1	29%[15.4 µM]	14	-1.1%	14%	16	5.5	-5%
COc1ccccc1N1CCN(C2CCN(C(=O)c3cccs3)CC2)CC1	-2%	-1	-0.6%	-11%	-4	3.7	11%
COc1cccc(NC(=O)CSc2nc3ccccc3cc2Cc2ccccc2)c1	-72%[inhibitor]	5	-3.2%	4%	9	-3.2	-4%
COC(=O)c1ccccc1NC(=O)c1noc2c1CC(C(C)(C)C)CC2 (stereo not given)	-25%	7	-2.7%	0%	-10	0.4	1%
c1nc(NCCN2CCOCC2)c2c3c(sc2n1)CCCCC3	-6%	4	-0.6%	9%	10	-0.4	-2%
CCOC(=O)c1c(C)n(O)c2ccc(Cl)cc2c1=O	20%	-21	-11%	35µM*	-6	-0.5	-9%
O=C(CN1C(=O)NC2(CCCCC2)C1=O)N1CCOCC1	-17%	20	1.5%	·	0	·	10%
COc1cccc(C2CC(=O)Nc3cc4c(cc32)CCC4)c1 (stereo not given)	-3%	·	0.6%	-22%	23	2.5	-5%
C=CCN1C(=O)CC(C(=O)NC)SC1=Nc1ccc(C(=O)OCC)cc1 (stereo not given)	-13%	-1	0.7%	4%	-9	-0.6	-2%
COc1ccc(Br)cc1S(=O)(=O)n1nc(C)cc1C	2%	15	1.6%	5%	-13	-2.2	-7%
COc1ccc(S(=O)(=O)N(C)Cc2cccs2)cc1Br	-50%[inhibitor]	4	-1.4%	-5%	2	-1.9	?
O=C1CCCc2c1cc(C(=O)NCc1ccco1)c(=O)n2-c1ccccc1	-3%	2	-26%	3%	9	3.1	0%
Cc1ccc(S(=O)(=O)Oc2ccccc2/C=N/NC(=O)c2nn(C)cc2[N+](=O)[O-])cc1	-56%[inhibitor]	-3	0.9%	4%	13	-0.9	-20%
COc1ccc(CC(=O)Nc2nc(-c3ccc(F)c(F)c3)cs2)cc1	0%[15.4 µM]	2	·	7%	1	-2.0	?
Cc1cnc(NC(=O)c2ccncc2)s1	0%[15.4 µM]	-4	-2.1%	9%	-1	-2.1	0%
c1ccc2c(c1)oc1c(Nc3ccc4c(c3)OCO4)ncnc12	?	-3	-3.6%	-30%	6	1.8	5%
C=CCn1c(SCC(N)=O)nnc1-c1cccc(Br)c1	-30%[inhibitor]	-2	-2.5%	11%	1	-0.2	-1%
CN(C)Cc1nc2ccccc2c(=O)n1CC(=O)Nc1cccc(S(=O)(=O)N2CCOCC2)c1	-2%[15.4 µM]	-12	·	0%	14	-1.4	-3%
Cc1nn2c(CN(C(=O)COc3ccccc3)c3ccccc3)nnc2c2ccccc12	?	22	-13%	-2%	4	2.2	13%
CC(C)c1nnc(SCC(=O)Nc2ccc3c(c2)OCO3)n1C	-8%	0	2.3%	18%	10	1.7	7%
O=C(Cn1cnc2ccccc2c1=O)c1ccc2ccccc2c1	-29%	7	32µM*	3%	-17	3.1	1%
CCOC(=O)c1cc2[nH]c3ccccc3c2[n+](-c2ccc([N+](=O)[O-])cc2)c1N	-29%	-4	-0.5%	4%	-1	-3.0	-29%
COc1ccc(C(=O)N/C(=C\c2cn(C)c3ccccc23)C(=O)N2CCN(C)CC2)cc1OC	-1%	-1	-3.8%	-4%	-3	2.1	-4%
Cc1ccc(-c2nn(C)c(=O)c3ccccc23)cc1CNC(=O)c1ccccc1	-2%[15.4 µM]	-5	·	4%	11	-0.4	?
Cc1nc(-c2noc(-c3cccc(Cl)c3)n2)c(C(F)(F)F)o1	1%	13	·	6%	-5	-0.3	1%
CCN(Cc1cc2ccc(C)cc2[nH]c1=O)C(=O)c1cccnc1	·	·	·	2%	-15	6.2	·
Cc1ccc(S(=O)(=O)N(C)C)cc1NC(=O)COC(=O)Cc1ccsc1	-6%	7	-4.1%	·	-7	·	11%
CC(C)Oc1cccc(C(=O)NC(=S)Nc2ccc3c4c(cccc24)CC3)c1	?	-15	-1.6%	-9%	15	-26	-8%
COc1ccccc1CN(C)C(=O)CN1C(=O)c2ccccc2C1=O	14%[15.4 µM]	2	·	-15%	18	-0.6	4%
CN(C)C(=S)Nc1ccc([N+](=O)[O-])cc1	-16%	2	1.2%	?	-8	-1.7	9%
Cc1cccc(C(=O)NN2S(=O)(=O)c3ccccc3S2(=O)=O)c1	33%	7	-1.3%	50µM*	-12	-0.2	9%
Fc1cccc(/C=N/Nc2cc(N3CCOCC3)ncn2)c1	18%[15.4 µM]	8	-0.5%	8%	-2	-2.5	-1%
COc1ccc(CN2CC(C(=O)NCc3ccccn3)CC2=O)cc1 (stereo not given)	-2%	-1	-2.2%	9%	3	-6.2	6%
Cc1cc(C)cc(OCC(=O)OCC(=O)NCc2ccco2)c1	-71%[inhibitor]	-3	-0.3%	-4%	11	-0.5	4%
Cc1noc2ncnc(Sc3c(Cl)cccc3Cl)c12	-12%	-4	-0.4%	2%	8	1.2	-23%
CCOC(=O)c1ccc(NC(=O)CC2C(=O)N(c3ccc(F)cc3)C(=O)N2CCCOC)cc1 (stereo not given)	16%	-10	-2.1%	-10%	12	1.9	-14%
O=C(COc1ccc(C(=O)NCC2CCCO2)cc1)Nc1cccc(C(F)(F)F)c1 (stereo not given)	-28%	0	-2.2%	·	-10	·	-3%
O=C(NC1CC1)c1ccc(CN(c2ccccc2)S(=O)(=O)c2ccccc2)cc1	-10%[15.4 µM]	19	·	21%	-33	0.4	·
COC(=O)/C=C1/S/C(=N/NC(=O)c2ccc(OC)cc2)NC1=O	-29%	-3	-14%	2%	1	3.4	4%
O=C(Nc1ccc(Nc2ccccc2)cc1)c1c(F)c(F)c(F)c(F)c1F	8%[15.4 µM]	-19	-3.8%	-15%	2	-1.1	3%
CN(Cc1ccc(Cl)cc1Cl)C(=O)Cc1ccc(S(=O)(=O)N2CCOCC2)s1	-28%	-21	-1.4%	·	·	·	·
N#C/C(=C/c1ccc(N2CCCCC2)o1)C(=O)Nc1ccc(Cl)cc1	-9%	7	3.6%	5%	10	?	-18%
CC(=O)NNC(=O)c1csc(Cc2c(Cl)sc3ccc(Cl)cc23)n1	-15%	3	-0.3%	15%	-4	3.8	4%
Other records
SMILES	gsp ag	CtBP-E1A blk	ClpP mod	Sfp PPTase inh	TRPV1 potentiator	Menin MLL FP FL	gsp antagonist
CCCn1nnnc1NC(=O)c1ccc2ccccc2c1	-11%	-12	-22%	12%	0	3.7	7%
COC(=O)c1ccc2c(c1)N(C)C(=O)CS2	-19%	7	-0.4%	10%	-5	0.8	-2%
CCOc1ccc2[nH]c(=O)c(CN(Cc3cccs3)Cc3nnnn3C(C)(C)CC)cc2c1	-24%	2	-28%	-6%	-4	3.9	-19%
CCc1c(C)nc(SCc2ccccn2)[nH]c1=O	-13%	·	-0.1%	-6%	10	1.3	10%
CC1(C)CC(O)C(C)(C)N1O (stereo not given)	16%	3	-1.9%	-8%	-6	-2.1	16%

Part of the list above, showing only Sfp PPTase inh:
structure	Sfp PPTase inh
CCCn1nnnc1NC(=O)c1ccc2ccccc2c1	12%
CC1(C)CC(O)C(C)(C)N1O (stereo not given)	-8%
CCOc1ccc2[nH]c(=O)c(CN(Cc3cccs3)Cc3nnnn3C(C)(C)CC)cc2c1	-6%
